Screening data from PubChem.
ClpP mod: qHTS Assay for Activators of ClpP; ATP-dependent Clp protease proteolytic subunit (Bacillus subtilis (strain 168)), P80244; purified B. subtilis ClpP, FRET peptide cleavage, 20 min; Potency, µM (series often up to 57.5 µM), inactives show at the highest dose activity change, negative = active; 1.9% of 340,000 active; active = well fitted falling curve with a large enough effect; inconclusive = small, poorly fitted or top-dose-only effect; inactive = no such curve, though single readings can be large or run the other way; further: potency means the concentration at half of the fitted maximal effect; the source files actives as falling curves though it sought activators and does not explain the sign; nearly all actives have a fitted effect of over 65% in size; many hits overshoot -100%
Target sequence (P80244 whole entry, looked up): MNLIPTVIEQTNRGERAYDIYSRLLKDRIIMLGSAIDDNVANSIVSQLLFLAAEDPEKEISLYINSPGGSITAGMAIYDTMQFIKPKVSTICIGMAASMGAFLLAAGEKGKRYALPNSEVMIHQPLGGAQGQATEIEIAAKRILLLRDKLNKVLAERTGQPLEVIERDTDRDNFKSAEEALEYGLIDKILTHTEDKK
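ClpP 10 microg/mL final, pH 8 Tris/KCl buffer with BSA, glycerol, Tween-20; compound pinned in; FRET-FV substrate; RT 20 min; Ex320/Em430; ΔFRET vs ADEP 5.8 microM, DMSO, no enzyme.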
Menin MLL FP FL: displaces fluorescein MLL peptide from human menin | Fluorescence polarization, fluorescein-MLL peptide displacement from menin | FP activity change, % at 61.4 µM | 290,000 tested, under 10 active | AID 1766; inconclusive = falling polarisation curve, or a change in total fluorescence; inactive = total fluorescence flat and polarisation flat or rising; no compound was filed as active; the % refers to the polarisation; negative = inhibition;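 further: % of control where 0% means no effect; inhibitors lower the polarisation; unlabelled MLL peptide was the positive control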
TRPML1 agonist: agonists of human TRPML1 channel; TRPML1-expressing cells, Ca2+ dye fluorescence, FDSS; host cell line not named in the record; reference of the full effect not given here; activation, % (test concentration not listed); 0.12% of 410,000 active; AID 624414; in the data active = activation above about 50%; inconclusive = about 30% to 50%; inactive = below about 30%; further: 0% is about no effect; the text of the record puts the active cut at 80%
Target sequence (Q9GZU1 whole entry, looked up): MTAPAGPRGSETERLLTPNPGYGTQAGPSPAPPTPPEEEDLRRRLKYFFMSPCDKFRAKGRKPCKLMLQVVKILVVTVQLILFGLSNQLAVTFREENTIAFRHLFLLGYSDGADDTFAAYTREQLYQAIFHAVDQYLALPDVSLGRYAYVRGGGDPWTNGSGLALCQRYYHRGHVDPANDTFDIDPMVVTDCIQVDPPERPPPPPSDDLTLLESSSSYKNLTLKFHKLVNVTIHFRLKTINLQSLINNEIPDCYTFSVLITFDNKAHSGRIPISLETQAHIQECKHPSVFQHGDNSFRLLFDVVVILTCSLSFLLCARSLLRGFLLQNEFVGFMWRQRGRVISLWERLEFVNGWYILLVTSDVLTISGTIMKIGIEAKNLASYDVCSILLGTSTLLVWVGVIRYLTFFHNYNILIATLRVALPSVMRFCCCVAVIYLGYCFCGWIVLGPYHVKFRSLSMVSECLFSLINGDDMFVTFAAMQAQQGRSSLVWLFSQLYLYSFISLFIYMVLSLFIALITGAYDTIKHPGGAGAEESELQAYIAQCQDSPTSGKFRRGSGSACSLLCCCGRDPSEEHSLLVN
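Agonist activity was taken from a 110 s kinetic Ca2+ dye read on the FDSS after pinning compounds onto TRPML1-DL cells. The cells were seeded at 1,500/well with Tet inducer, incubated about 16 h, then dye-loaded at room temperature.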
PINK1 modulator: PINK1 expression modulation | PINK1 immunofluorescence, high-content cytometry, 24 h | Potency, µM (doses to about 76.6 µM), for inactives: at the highest dose activation (PINK1 increase), actives largely listed as activators | 0.2% of 410,000 active | AID 624263; active = well fitted activation curve with a large enough effect; inconclusive = small, poorly fitted or top-dose-only effect; inactive = flat fitted curve, though single readings scatter; cell line not stated here;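 further: potency means the concentration at half of the fitted maximal effect; % of control where 0% means no effect; nearly all actives have a fitted effect of over 65% in size; a mitochondrial uncoupler was the plate control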
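Compound titrations (5 concentrations, 24 h) on a stable cell line; DMSO and CCCP controls. Endpoint: fixed-cell PINK1 immunofluorescence with mitochondrial, cell and nuclear markers, scanned by microplate cytometer.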
TRPV1 PAM: potentiators of human vanilloid receptor 1 (TRPV1). TRPV1-expressing cells, Fluo-8 calcium influx, capsaicin EC20 potentiation; host cell line not named in the record; control for the full effect not named in the record. potentiation, % at 8.33 µM. 0.02% of 320,000 active. AID 540277; active means potentiation above 80%; inconclusive means 30% to 80%; inactive means below 30%; further: 0% is about no effect
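Cells expressing TRPV1 were dye-loaded with Fluo-8 and read kinetically: 10 s baseline, 3 min after compound (agonist portion), then 2 min after EC20 capsaicin (allosteric enhancer portion). Calcium-bound dye fluorescence at 480/520 nm.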
Sfp inh: Sfp phosphopantetheinyl transferase inhibition. Biochemical Sfp PPTase activity, qHTS. 3.5% of 310,000 active. AID 1490. Potency, µM, for the others: max response, negative = inhibition, actives largely listed as inhibitors. Q9F4F7; active means well fitted inhibition curve with a large enough effect; inconclusive means small, poorly fitted or top-dose-only effect, or another doubt; inactive means no such curve, though single readings can be large or run the other way;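 further: the enzyme is Sfp with the accession as filed and its product quenches rhodamine fluorescence; potency means the concentration at half of the fitted maximal effect; 0% = enzyme reaction without inhibitor and -100% = no enzyme wells; top concentration of the series not given in the record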
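After 15 min at room temperature with compound, 15 nM Sfp received 5 uM rhodamine-CoA plus 12.5 uM BHQ-2-ybbR (50 mM Hepes pH 7.6, 10 mM MgCl2). Rate came from the fluorescence difference over 30 min, ex 525/em 598 nm.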
TRPML1 inh: blocks the human TRPML1 channel | Q9GZU1 | activity change, negative = inhibition, % (concentration not given with the values) | 0.02% of 390,000 active | AID 624415 | TRPML1-inducible cells, Ca2+ dye fluorescence, FDSS; active compounds read low; inhibition of EC80 agonist-evoked calcium signal; in the data active means activity change below about -50%; inconclusive means about -30% to -50%; inactive means above about -30%;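 further: stimulus is agonist 54-4 at its EC80 concentration; on the % scale 0 is the no-effect control and ±100 the full control effect; the text of the record puts the active cut at -80%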
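TRPML1-DL cells, Tet-induced overnight (~16 h, 37 °C) at 1,500 cells/well, were loaded with Ca8 no-wash dye plus quencher for 45-90 min at room temperature. Compounds were pinned during FDSS kinetic reading; agonist 54-4 at EC80 (4 uM final) then added.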
Numbers without * were called inactive; ? = inconclusive; / = no result given; & = joins results of further samples; [ ] = another dose, or the depositor's remark.

SMILES	ClpP mod	Menin MLL FP FL	TRPML1 agonist	PINK1 modulator	TRPV1 PAM	Sfp inh	TRPML1 inh
CC(C)c1nc2c([nH]1)c(=O)n(C)c(=O)n2C	-1.1%	-0.3	0.3	0.9%	9	10%	-5
C1=CCC(CN2CCNCC2)CC1 (stereo not given)	/	-4.6	0.3	0.4%	2	3%	-6
CCC(=O)c1ccc(N2CCC(C)CC2)c(F)c1	/	2.0	-0.7	4.6%	-15	6%	-14
O=C(CSc1nnc(C2CC2)n1C1CC1)c1cc(F)ccc1F	-4.2%	/	0.7	-1.4%	1	/	-3
CCOc1ccc(N(C)S(=O)(=O)c2cc(-c3cnc(C)o3)ccc2OC)cc1	-1.9%	/	0.9	0.7%	/	/	19
CCc1cc(C(=O)COc2ccc(F)cc2)c(O)cc1O	-0.1%	-1.1	2.7	?	-4	15%	17
CC(C)n1ncc2c(C(=O)N3CCN(Cc4cccs4)CC3)cc(C3CC3)nc21	-11%	/	0.7	1.0%	/	/	-3
Cc1ccc(-n2c(SCC(=O)NCCN3C(=O)CSC3=O)nnc2-c2ccccc2F)cc1	-3.8%	3.6	0.1	2.0%	3	29%	22
COC(=O)c1cc2oc3ccccc3c2n1CC(=O)N1CCCc2ccccc21	8.9µM*	1.3	-0.5	4.8%	4	3%	-15
Cc1cc(=O)oc2cc(OC(C)C(=O)NCc3ccccn3)ccc12 (stereo not given)	3.3%	/	0.0	0.3%	6	11%	11
COc1cccc(-c2cccc(NC(=O)C3CCN(Cc4ccc(CO)o4)CC3)c2)c1	-0.7%	/	-0.9	0.6%	-4	6%	0
CSCC[C@H](N)C(=O)N1CCC(C(=O)N[C@@H](C)C(=O)NCc2ccc(F)cc2)CC1	4.2%	2.6	/	0.0%	-2	-2%	/
Cc1ccc(NC(=O)CN(C)C(=O)c2cccc(Br)c2)cc1	/	-12	-0.1	2.3%	-10	-9%	1
COc1cc(OC)c2c(-c3ccccc3)cc(=O)oc2c1C(CC(=O)N1CCN(c2ccccc2)CC1)c1ccc(N(C)C)cc1 (stereo not given)	0.3%	5.9&-0.1	1.2&0.2	0.6%	7	-13%&2%	-8&33
O=C(NCCOc1ccccc1Cl)C(=O)NCCOc1ccccc1Cl	0.2%	1.7	0.9	1.5%	-1	8%	9
O=C(N1CCOCC1)n1nnc2ccccc21	-0.2%	-0.6	-0.5	-0.1%	-16	11%	-6
COc1cc(N2C(=O)NC3CC2(C)Oc2ccccc23)cc(OC)c1OC (stereo not given)	-1.9%	-1.2	1.2	-1.2%	19	13%	?
CCOC(=O)N1CCN(S(=O)(=O)c2cc(Cl)c(OC)cc2Cl)CC1	-3.0%	-8.0	1.8	-1.5%	-6	6%	8
Cc1cccc(C(=O)C2CCOC(C)(C)C2)c1 (stereo not given)	0.4%	2.5	0.8	0.4%	13	18%	-9
O=C(Nc1nnc(C2CCCCC2)s1)c1ccc(Br)s1	0.2%	1.5	0.5	5.2%[38.3 µM]	-7	2%	6
CCCCCCCCCCCC(=O)NC(C(=O)OCC)C(O)c1cccc([N+](=O)[O-])c1 (stereo not given)	3.4%	-4.3	0.4	6.4%	/	25%	6
O=C(O)c1cc2n(n1)CCN(Cc1ccccc1Cl)C2=O	/	-6.9	-0.3	0.9%	-2	13%	-2
COc1cccc(CNC(=O)C(Cc2ccccc2)NS(=O)(=O)c2ccc3c(c2)oc(=O)n3C)c1 (stereo not given)	-0.3%	/	-0.6	1.8%	/	/	13
COc1cc(NC(=O)c2cc3c(Cl)nc4ccccc4c3s2)cc(OC)c1OC	-0.8%	3.2	-0.1	4.1%	3	0%	3
CC(=O)c1ccc(N2CCN(C(=O)c3nn(Cc4ccccc4)c(=O)c4ccccc34)CC2)cc1	/	2.6	0.9	?	28	-13%	26
CCOc1c(Br)cc(CNC2CCCCCCC2)cc1OC	-1.4%	0.3	-0.4	-0.8%	4	9%	-3
Cc1cccc(CNC(=O)c2ccc3c(c2)c(C)c(C)n3Cc2ccccc2)c1	-28%	/	1.3	-0.1%	/	/	-10
O=C(CN1C(=O)CSc2ccc(S(=O)(=O)N3CCCC3)cc21)Nc1cccc(Cl)c1	0.9%	/	1.9	0.4%	/	/	9
CCCCN(C(=O)C1CCCO1)c1c(N)n(CCC)c(=O)[nH]c1=O (stereo not given)	-1.0%	/	0.0	0.2%	/	/	3
O=C(Cn1nnc(-c2ccc([N+](=O)[O-])cc2)n1)NNC(=O)c1ccccc1	/	-3.5	-0.7	3.9%	25	-2%	-3
CC1CCN(c2nc3ccc(C(=O)N4CCN(c5ccccc5)CC4)cc3s2)CC1	-2.8%	/	0.1	1.6%	/	/	-7
COC(=O)c1ccc(NC(=O)CS(=O)(=O)c2ccccc2)cc1	2.0%	-0.1	-0.8	1.2%	-31	10%	2
Cc1ccc(-c2noc(-c3cccnc3NCc3ccc(Cl)cc3)n2)cc1	?	/	-0.7	0.3%	/	/	-10
CC1CCN(C(=O)c2[nH]cnc2C(=O)N[C@@H](C)c2ccccc2)CC1	-2.8%	/	-0.6	-0.9%	-12	/	-3
CCc1nc2nc(C)cc(Nc3ccc(OC)cc3OC)n2n1	-1.7%	/	1.4	-0.7%	/	/	-8
Cc1ccc(-n2c3c(cc(C(=O)NCc4ccco4)c2=O)C(=O)CCC3)cc1	-8.8%	-1.9	0.7	-1.1%	-2	1%	-3
NC(=S)N/N=C\c1c2ccccc2cc2ccccc12	-1.2%	9.0	0.1	-3.4%	18	-19%	-16
COc1ccccc1CNc1nc(-c2c(C)noc2C)nc2ccccc12	/	17	/	2.5%	/	?	/
Cc1ccc(S(=O)(=O)Nc2c(C)nc3nc(C)[nH]n3c2=O)c(C)c1	-3.5%	4.4	0.2&2.6	-1.2%&-1.6%	9	19%	-4&3
Cc1ccc(Nc2nc(C)cc(C)n2)c(Br)c1	1.3%	1.1	-0.7	-0.2%	1	1%	-8
Cc1ccc(CNC(=O)CCS(=O)(=O)c2ccc(Br)s2)o1	-0.5%	11	-0.1	?	9	40µM*	6
CCOc1ccc(C2C(C(=O)c3cccs3)=C(O)C(=O)N2CCCn2ccnc2)cc1 (stereo not given)	0.7%	-6.6	2.4	-1.1%	-4	2%	-5
C=CCOC(=O)C1=C(C)N=C2SCCC(=O)N2C1/C=C/c1ccccc1OC (stereo not given)	-2.8%	0.3	-0.3	-0.7%	-9	-9%	18
CCN1CCN(C(=O)C2=C(C(=O)O)CCCC2)CC1	-0.3%	0.6	0.0	-2.9%[38.3 µM]	-2	10%	5
CCOc1ccc(NC(=O)CN(C)C(=O)c2c(-c3c(F)cccc3Cl)noc2C)cc1OCC	/	/	3.0	-0.4%	?	/	12
CCOC(=O)c1c(NC(=O)c2ccccc2Br)sc2c1CCc1ccccc1-2	-30%	-1.4	-0.1	?	4	40µM*	-1
OC(CNCc1ccccc1F)(c1ccc(F)cc1)c1ccc(F)cc1	/	-2.1	1.7	?	12	-19%	-2
COc1ccc(N(CC(=O)NCC2CCCO2)S(=O)(=O)c2c(C)noc2C)cc1 (stereo not given)	2.1%	1.6	-1.0	?	5	21%	-2
Cc1cccc(Cn2c(C)nc3c(N)c(C)c(C)cc32)c1	/	-0.8	-0.8	1.9%	-28	-13%	13
Cc1ccsc1/C=N/Nc1ccc(F)cc1F	/	12	1.5	?	-12	-2%	56
COc1cc(CNc2cc(C)ccc2C)cc(OC)c1OC	-0.3%	2.0	1.5	1.4%[38.3 µM]	-7	-1%	-15
O=C(COC(=O)CN1C(=O)c2ccccc2C1=O)Nc1cccc(F)c1	0.7%	/	0.0	0.4%	-7	/	25
Cc1nc2nc(SCc3ccccc3)[nH]n2c(=O)c1C	1.3%	2.1	0.9	-0.1%	7	8%	9
CC(C)C(=O)Nc1cccc(C(=O)Nc2cc([N+](=O)[O-])ccc2F)c1	0.8%	0.7	0.4	1.8%	3	8%	3
Cc1ccc2[nH]c(C)c(/C=C/c3cc[n+](C)cc3)c2c1	/	?	10	14µM*	21	-11%	7
COC(=O)c1cccc(NC(=O)c2cc(OC)c(OC)c(OC)c2Br)c1	/	5.1	2.3	0.5%	7	5%	15
O=Cc1ccc(CS)cc1	-3.6%	/	-0.4	0.8%	/	/	/
C=CCN1C(=O)S/C(=C\c2ccc3c(c2)n(C)c(=O)n3C)C1=O	-0.9%	0.3	-0.4	17%	5	1%	-8
COc1ccc(/C=N/NC(=O)c2ccc(Cl)cc2Cl)cc1COC(C)=O	-1.1%	1.8	0.1	17%	1	8%	-4
O=C(NCCCn1ccnc1)c1ccc(Br)cc1	/	2.8	-0.4	2.3%	5	11%	0

Later entries:
SMILES	ClpP mod	Menin MLL FP FL	TRPML1 agonist	PINK1 modulator	TRPV1 PAM	Sfp inh	TRPML1 inh
C[C@H]1CN([C@@H](C)CO)C(=O)c2cccc(NC(=O)C3CC3)c2O[C@H]1CN(C)S(=O)(=O)c1ccccc1	-3.5%	/	-0.4	0.0%	/	/	2
CCOc1ccc(NC(=O)c2c(NC(=O)CN3CCN(C)CC3)sc3c2CCC3)cc1	/	0.6	/	/	-3	-23%	/
COc1ccc(-c2cn(CCO)c(CCN)n2)cc1	0.2%	/	-0.5	-0.1%	-20	/	-10
COC1CCCCC1Nc1cc(C)ccc1C (stereo not given)	0.7%	-2.2	-0.4	?	16	18µM*	6
O=C(CSc1nnc(-c2ccccc2)c(-c2ccccc2)n1)NC1CCCC1	-2.0%	/	2.3	-0.1%	/	/	-10
CCN(C(=O)COC(=O)c1nccnc1N)c1cccc2ccccc12	-0.2%	/	-0.6	2.5%	/	/	-11
O=C(NCCNCCO)c1c(O)c2cccc3c2n(c1=O)CCC3	?	4.9	-0.3	-4.0%	17	-13%	20
